From PubChem BioAssay
FGF22 binding: binders of human FGF22 protein, primary screen, FGF22 synaptogenesis inhibitor project, biophysical, thermal shift, single point; Fibroblast growth factor 22 (Homo sapiens), Q9HCT0; recombinant FGF22 thermal shift, SYPRO orange fluorescence; percent of sucrose octasulfate shift, DMSO zero; calls only at 9.99 µM; 340,000 compounds, 1.5% hits;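 active = melting point raised past a set limit in the mean and every replicate; inconclusive = no clear call; three in four hits are not shown here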
Target sequence (Q9HCT0 whole entry, looked up): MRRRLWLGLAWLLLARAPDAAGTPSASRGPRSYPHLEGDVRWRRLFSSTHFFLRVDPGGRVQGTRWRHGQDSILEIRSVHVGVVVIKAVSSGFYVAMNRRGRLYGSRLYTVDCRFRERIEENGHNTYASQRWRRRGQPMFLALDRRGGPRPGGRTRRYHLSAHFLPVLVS
Ecoli rRNA inh: reduced GFP signal of wild-type E. coli, primary screen, bacterial rRNA inhibitor project, GFP/RFP fluorescence, OD600, single point; E. coli WT GFP vs humanized-ribosome RFP mutants, 24 h; hits give low values; DMSO median 0, no signal -100; GFP signal change (wild-type ribosome), % (no concentration beside the values); 350,000 compounds, 1.6% hits; AID 720706, 2013;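 active = significant combined selectivity score with lowered wild-type GFP, culture density cut under 30%, mutant RFP and density less affected; inactive = any of these conditions unmet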; also: one replicate is shown; some compounds called inactive have numbers as strong as hits
Calb FLC: C. albicans growth inhibition with fluconazole, primary screen, CaCi-2 strain, Alamar Blue fluorescence; C. albicans CaCi-2 (fluconazole-resistant clinical isolate) + fluconazole, 48 h; growth inhibition, % (no concentration beside the values); 300,000 compounds, 0.57% hits;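 active = most replicates above 75%; inconclusive = exactly half above 75%; inactive = most below 75%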;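 also: all wells also contain fluconazole at 8 µg/ml as a sub-toxic cotreatment; 0% = median of DMSO wells and 100% = median of geldanamycin control wells; wells of about 8 µL received 7.5 nL stock; the first replicate is given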
AF4-AF9 inh: inhibitors of AF4 peptide binding to AF9, primary screen, biochemical, AlphaScreen, biotin-AF4 peptide, FLAG-AF9, single point. Protein AF-9 (Homo sapiens), P42568. 350,000 compounds, 0.47% hits. inhibition, % at 10 µM;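 active = every replicate reaching a set inhibition limit, whatever the replicate mean, cut at about 25% in these data; inconclusive = mean inhibition reaches that limit but some replicates miss it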;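 also: 0% = plate neutral control median and 100% = total signal loss; the record names both 10 and 1 µM as test concentration; the first replicate is given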
Target sequence (P42568 whole entry, looked up): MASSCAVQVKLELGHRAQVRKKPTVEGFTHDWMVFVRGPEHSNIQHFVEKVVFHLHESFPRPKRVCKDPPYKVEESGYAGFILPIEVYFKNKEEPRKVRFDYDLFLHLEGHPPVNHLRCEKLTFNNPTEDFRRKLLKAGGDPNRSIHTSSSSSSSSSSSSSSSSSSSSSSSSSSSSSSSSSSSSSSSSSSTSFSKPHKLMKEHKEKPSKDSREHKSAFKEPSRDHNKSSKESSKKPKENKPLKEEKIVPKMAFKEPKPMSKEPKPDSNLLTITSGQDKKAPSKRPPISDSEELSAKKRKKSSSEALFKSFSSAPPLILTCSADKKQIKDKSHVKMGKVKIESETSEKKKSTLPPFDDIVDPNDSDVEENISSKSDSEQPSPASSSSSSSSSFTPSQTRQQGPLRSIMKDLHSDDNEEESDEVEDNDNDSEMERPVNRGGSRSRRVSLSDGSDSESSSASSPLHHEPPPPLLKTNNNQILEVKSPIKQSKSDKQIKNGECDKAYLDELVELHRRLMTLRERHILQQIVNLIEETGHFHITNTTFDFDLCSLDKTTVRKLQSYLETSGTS
ALR inh: inhibitors of human ALR sulfhydryl oxidase, primary screen, biochemical, H2O2 detection, HRP-luminol luminescence, single point; FAD-linked sulfhydryl oxidase ALR (Homo sapiens), P55789; purified ALR, DTT oxidation; inhibition, % (test concentration not listed); 290,000 compounds, 3.8% hits; AID 485317, 2010;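 active = mean and each replicate at 75% or more; inconclusive = only one of the two met; inactive = neither met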;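 also: stock transfer was 7.5 nL into about 7.5 µL; 0% = neutral wells and 100% = wells with inactivated enzyme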
Target sequence (P55789 whole entry, looked up): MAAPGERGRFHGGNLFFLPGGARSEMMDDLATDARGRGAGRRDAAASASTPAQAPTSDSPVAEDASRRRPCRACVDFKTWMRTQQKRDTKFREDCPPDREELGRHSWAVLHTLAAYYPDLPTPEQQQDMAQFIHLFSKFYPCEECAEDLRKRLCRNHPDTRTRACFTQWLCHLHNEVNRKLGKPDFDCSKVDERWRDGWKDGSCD
Beta cell apopt: inhibitors of cytokine-induced beta cell apoptosis, primary screen, luminescence; INS-1E cytokine-induced death, ATP luminescence, 48 h; percent of positive-control rescue, neutral wells zero; protection from apoptosis, % (no concentration beside the values); 300,000 compounds, 0.8% hits;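 active = all replicates at 75% or more, or half of them and the mean; inconclusive = half reach 75% but not the mean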;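 also: 0% = cytokine-treated negative control wells and 100% = positive control rescue; higher means more ATP so stronger rescue from cytokine killing; wells of about 40 µL received 100 nL stock; the first replicate is given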
RanGTP-Impb inh: inhibitors of RanGTP-importin-beta interaction, primary screen, biochemical, FRET, CFP-Ran, YFP-importin-beta, homogeneous | Ran GTPase (GTP-bound) - importin-beta complex | cell-free CFP-Ran/YFP-importin-beta FRET ratio | inhibition, % (test concentration not listed) | 300,000 compounds, 1.1% hits;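 active = most replicates above 15%; inconclusive = exactly half above 15%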;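 also: 0% = DMSO wells and 100% = Ran loaded with GDP instead of GTP; wells of about 40 µL received 100 nL stock; the first replicate is given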
T cruzi repl: inhibitors of intracellular T. cruzi growth, primary screen, luminescence, NIH3T3 host cells. T. cruzi beta-gal in NIH3T3, 90 h. inhibition, % (test concentration not listed). 300,000 compounds, 1.4% hits. AID 1885, 2009;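 active = mean inhibition across valid replicates above about 55%, limit read from the data; inconclusive = mean below that limit but half or more replicates reach it; inactive = mean below it, under half of replicates reach it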;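 also: signal also drops with host cell toxicity which is not excluded here; 0% = plate median of DMSO wells and 100% = zero luminescence signal; higher percent means less beta-gal luminescence so fewer parasites; stock transfer was 50 nL into about 50 µL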
Ecoli rRNA inh OD600: also measured in Ecoli rRNA inh; calls as there; OD600 change, %; measured here: OD600 growth;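 optical density of the mix in the first replicate; 0 = DMSO median and -100 = no signal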
Ecoli rRNA inh RFP: recorded beside Ecoli rRNA inh, whose call it bears; RFP signal change, %; measured here: RFP humanized mutant strains;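 first replicate; 0 = DMSO median and -100 = no signal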
Numbers without * were called inactive; i = inactive; ? = inconclusive; . = not tested or not shown. A portion of the library, so the mix of outcomes need not match the whole.

SMILES	FGF22 binding	Ecoli rRNA inh	Ecoli rRNA inh OD600	Ecoli rRNA inh RFP	Calb FLC	AF4-AF9 inh	ALR inh	Beta cell apopt	RanGTP-Impb inh	T cruzi repl
CC(C)(C)C(=O)CSc1nc2ncc(Br)cc2[nH]1	.	.	.	.	7	.	7	-2	2.5	-4
COc1ccccc1CNc1nc2nc(C)c(Cl)c(=O)n2[nH]1	.	.	.	.	2	.	1	-1	-3.3	-3
Cc1nnc(SCC(=O)N2CCc3ccccc32)s1	.	.	.	.	-4	.	3	-7	2.0	-2
CCCC(NCC(=O)Nc1cc(S(=O)(=O)N2CCOCC2)ccc1OC)c1ccccc1 (centres undefined)	i	-16	-40	-3.4	.	1.5	.	2	.	.
Cc1ccc(NP(=O)(Nc2ccc(C)cc2)Nc2ccc(C)cc2)cc1	i	-5	-26	-6.2	8	3.5	-17	-16	-0.5	3
COc1ccc2cc(C(c3nnnn3C3CCCC3)N3CCCCCC3)c3nnnn3c2c1 (centres undefined)	.	.	.	.	6	.	-12	3	-6.2	2
CCCCCNc1nc(-c2ccccc2)nc(-n2ccnc2)n1	i	20	5	3.5	20	-1.2	-1	5	2.9	62*
Cc1ccc(CN2CC(C(=O)N3CC(C)CC(C)C3)CC2=O)cc1 (centres undefined)	i	-2	-7	-1.7	1	1.2	-1	4	-1.4	-5
O=C(CSc1nnc(C2CC2)n1CC1CCCO1)Nc1ccccc1Cl (centres undefined)	.	5	-3	-5.1	-7	1.4	2	-4	-3.1	-5
Cc1nn(-c2ccc(C(=O)OC(C)C)cc2)c(C)c1[N+](=O)[O-]	i	6	6	-2.5	10	-0.8	7	3	-3.2	-3
Cc1n[nH]c(C)c1Cc1ccc(C(=O)O)cc1	.	.	.	.	-4	.	6	-2	-0.4	-11
CCOC(=O)C1CCN(C(=O)c2ccccc2CCc2ccccc2)CC1	i	-26	-33	-0.2	4	-3.0	-55	-4	0.2	7
Cc1ccc(NC(=O)CSc2nc(O)cc(=O)n2C)cc1	.	.	.	.	12	.	99*	-5	0.3	5
O=C(CCC(=O)Nc1ccccc1)NNS(=O)(=O)c1ccccc1[N+](=O)[O-]	i	16	13	1.8	-6	-4.0	-13	-6	?	-22
Cc1ccc(-n2c(C)cc(C(=O)CN3CCOCC3)c2C)cc1	i	-3	-3	-1.8	?	3.7	7	-4	-0.8	0
CCOc1ccc(OCc2ccc(C(=O)N3CCCC(C)C3)cc2)cc1 (centres undefined)	i	-18	-20	-2.6	-21	-2.5	-20	8	3.8	-6
Cn1cnnc1SCC(=O)OCN1C(=O)c2ccccc2C1=O	.	.	.	.	1	.	-5	1	-0.2	-10
COc1ccccc1NC(=O)COC(=O)c1ccc2c(c1)OCCO2	i	11	11	-0.5	.	1.4	1	-3	.	.
Cn1cccc1C(=O)OCC(=O)c1ccc(Br)s1	i	-6	-29	1.0	.	-3.2	1	10	.	.
CCC(CC)NC(=O)CO/N=C/c1ccc(Cl)cc1Cl	i	8	6	-1.2	-27	-0.4	.	0	3.9	7
Cc1nc2ccc(NC(=O)c3ccccc3)cc2s1	i	4	5	-1.0	31	-1.4	1	2	-6.4	-23
COc1ccccc1N1CCN(S(=O)(=O)CC23CCC(CC2=O)C3(C)C)CC1 (centres undefined)	.	.	.	.	17	.	40	-8	-1.5	4
CCOC(=O)C1=C(c2ccccc2)N2CCS(=O)(=O)N=C2S1	.	.	.	.	8	.	-10	3	-2.7	-6
Cc1ccc(NC(=O)CSc2ccccn2)cc1S(=O)(=O)N1CCOCC1	.	-18	-33	2.6	14	-1.4	-2	2	1.8	7

Printed as active in ALR inh, of those listed so far:
mol | Ecoli rRNA inh | Ecoli rRNA inh OD600 | Ecoli rRNA inh RFP | AF4-AF9 inh | ALR inh | RanGTP-Impb inh
Cc1ccc(NC(=O)CSc2nc(O)cc(=O)n2C)cc1 | . | . | . | . | 99* | 0.3

(listing goes on)
SMILES	FGF22 binding	Ecoli rRNA inh	Ecoli rRNA inh OD600	Ecoli rRNA inh RFP	Calb FLC	AF4-AF9 inh	ALR inh	Beta cell apopt	RanGTP-Impb inh	T cruzi repl
O=C(c1ccc2nccnc2c1)N1CCCC(Nc2ccc(F)c(F)c2)C1 (centres undefined)	i	6	4	-0.3	-5	-1.5	2	-3	-2.5	9
CCC1CCc2sc(C(=O)N(C)CC(=O)Nc3ccc(N4CCOCC4)cc3)cc2C1 (centres undefined)	.	-5	-7	-0.4	.	0.1	5	5	?	-2
Cc1nc2ccccn2c1C(=O)NC1CCCC1	.	10	13	2.3	2	-0.6	.	3	7.6	-8
COc1ccc(C)cc1Cn1nnc2ccccc21	i	-10	-10	-6.8	-5	-8.0	4	-4	-1.9	-9
O=C(Cc1ccccc1)NN1C(=O)c2ccccc2C1=O	.	.	.	.	-13	-2.1	-1	-2	-2.9	-8
COc1ccc(/C=C2\SC(=S)N(CCC(=O)Nc3ccc(O)cc3)C2=O)cc1	i	13	9	3.3	-5	2.6	-5	.	0.9	-13
COc1ccc(Nc2nc(N)c3ccccc3n2)c(OC)c1	.	-15	1	-2.0	-3	12	84*	.	5.0	29
COc1ccc(C)cc1-n1nnnc1SCc1cn2ccsc2n1	.	.	.	.	-5	.	0	-2	0.4	12
Cc1ccc(CNC(=O)c2cccc3c2C(=O)c2ccc(N4CCCCC4)cc2S3(=O)=O)cc1	i	11	4	11	.	-1.0	0	6	.	.
COc1cc(Br)c(CNc2cc(C)ccc2C)cc1OC	i	-24*	-16*	-2.3*	3	6.1	.	5	1.2	13
CC(C)CC(c1nnnn1Cc1ccccc1)N1CCC(C(N)=O)CC1 (centres undefined)	.	.	.	.	7	.	4	.	5.6	16
O=C(Nc1ccc(F)cc1)c1c(Cl)nc2ccccn12	i	-9	-7	-2.6	-22	?	-1	0	0.0	-5
N#CCCN1CCN(Cc2ccccc2)CCC1=O	i	6	-6	0.4	1	-2.5	2	-4	-1.2	-4
COCCNC(=O)COc1ccccc1Cl	.	.	.	.	-3	.	-14	-1	-1.3	-9
COc1cccc(N2CCN(c3ccc4nnc(CCC(=O)N5CCN(C)CC5)n4n3)CC2)c1	i	5	-7	-1.0	-3	-2.1	98*	-7	4.2	3
O=C(Nc1ccccc1)N1CCCN(c2nccc(C(F)(F)F)n2)CC1	i	11	11	6.4	5	0.7	-17	-1	0.2	-3
CC(C)c1ccccc1NS(C)(=O)=O	.	.	.	.	2	.	-6	.	-1.4	-14
CN(CC(=O)Nc1ccc(F)c(F)c1F)C(=O)CC1CCCCC1	i	12	11	0.9	.	-0.4	-10	3	.	.
CCc1ccccc1NC(=O)COC(=O)C1CC(=O)N(c2ccc(F)cc2)C1 (centres undefined)	.	.	.	.	5	.	-24	-1	.	0
O=C(NCc1ccco1)c1cc(C(=O)C2CCCCC2)c[nH]1	.	.	.	.	29	.	-1	2	?	-18
O=[N+]([O-])c1cccc(-c2nnc3cccc(Cl)n23)c1	i	0	8	-3.8	7	-1.6	-1	-7	1.3	-4
CC(C(=O)O/N=C(\N)c1cccnc1)c1ccc([N+](=O)[O-])cc1 (centres undefined)	i	7	3	-1.1	0	-4.1	-14	-3	2.6	4
COc1ccc(CCN2CCCn3c2nc2c3c(=O)[nH]c(=O)n2C)cc1OC	i	4	8	2.6	3	1.0	5	-1	1.6	-13
CN(C)C(=O)N1CCC(C(=O)NCC2CCCO2)CC1 (centres undefined)	i	3	-1	4.7	5	-28	1	-2	0.0	-8
O=C(O)c1ccc(N/N=C/C=C/c2ccccc2[N+](=O)[O-])cc1	i	-8	-3	0.6	-4	6.9	.	-3	0.2	-4
O=C(N/N=C/c1ccc(-c2cccc([N+](=O)[O-])c2)o1)c1cccs1	i	6	-11	-1.3	-1	1.5	-7	6	5.6	80*
COCCN(C(=O)COC(=O)c1cc(C)n(-c2ccccc2)c1C)c1c(N)n(Cc2ccccc2)c(=O)[nH]c1=O	i	-2	-4	0.9	-4	1.8	-4	-1	0.6	-9
Cn1nc(-c2ccc(NCCO)c([N+](=O)[O-])c2)c2ccccc2c1=O	i	1	4	-0.6	3	2.0	-1	-1	6.9	12
Cc1cc(NC(=O)C2CCN(C(=O)c3ccco3)CC2)ccc1Br	i	-12	-29	19	-23	-2.0	3	.	-4.9	-1
OC[C@H]1O[C@H](OC[C@H]2O[C@H](OC[C@H]3O[C@H](O[C@]4(CO)O[C@H](CO)[C@@H](O)[C@@H]4O)[C@H](O)[C@@H](O)[C@@H]3O)[C@H](O)[C@@H](O)[C@H]2O)[C@H](O)[C@@H](O)[C@H]1O	i	.	.	.	-11	-4.8	-15	-2	0.9	-7
CCOC(=O)c1c(C)nc2sc3c(=O)n(-c4ccc(C(C)=O)cc4)cnc3c2c1-c1ccc(OC)cc1	.	.	.	.	7	.	-2	13	0.4	14
CCOC(=O)CNC(=S)N(CCCN1CCN(C)CC1)Cc1cccs1	i	12	14	-1.1	1	-0.5	2	-6	4.7	0
CCN(CC)C(=O)Cc1cc(C(=O)O)c2ccccc2n1	.	.	.	.	20	.	2	1	-5.8	4
CN(C)Cc1c(C(=O)N/N=C/c2ccccc2OCc2c(F)cccc2Cl)nnn1-c1nonc1N	i	19	12	3.9	7	2.6	.	8	7.3	-3
O=S(=O)(Nc1ccncc1Cl)c1cc(Cl)ccc1Cl	i	-4	-11	0.8	8	-1.0	1	2	2.3	-13
CC(=O)Nc1cccc(N2C(=O)CCC2=O)c1	.	.	.	.	-9	.	-12	-3	3.9	-9
CCOc1cc(C(=O)N2CCN(C/C=C/c3ccccc3)CC2)cc(OCC)c1OCC	.	.	.	.	-8	.	-14	12	-1.1	33
COc1ccc(-c2cc(=O)oc3cc(OCC(=O)NCC4CCC(C(=O)O)CC4)ccc23)cc1 (centres undefined)	i	-13	-12	-16	-1	-2.3	.	-2	-1.0	-16
COc1ccc(CCn2c(C)cc(C(=O)COC(=O)c3ccc(NC(=O)CC#N)cc3)c2C)cc1	.	.	.	.	30	.	-14	-2	0.1	2
Cc1ccc2c(=O)n3c(nc2c1)C(Cc1ccc(O)cc1)NC(=O)c1ccc(Cl)cc1-3 (centres undefined)	i	-5	-1	-10	.	-0.9	-8	2	.	.
CCOC(=O)c1cc(CNC(=O)c2c(C)oc3c2CCCC3)c(C)o1	.	4	-1	-0.8	2	.	-4	4	-2.5	1
COc1cccc(NC(=O)c2cccc(S(=O)(=O)N3CCN(Cc4ccccc4)CC3)c2)c1	i	-9	-9	3.6	-8	0.4	-9	8	3.0	12
COCCCNC(=O)CSC1=Nc2ccccc2C2=NC(c3ccccc3)C(=O)N12 (centres undefined)	i	7	10	-0.6	7	-5.1	-7	0	?	-4
